GLA inh pH 4.5 = alpha-galactosidase A (human) inhibition, pH 4.5; AID 1467; activity change, negative = inhibition, % at 105 µM; 230,000 tested, under 10 active; purified enzyme, 4-MU-alpha-Gal fluorescence, pH 4.5; inconclusive = small, poorly fitted or top-dose-only inhibition, or a rising curve; inactive = flat fitted curve, though single readings scatter; no compound was filed as active;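 note: 0% = full activity with enzyme and -100% = basal without enzyme; dose as in the result columns while the protocol names 77 µM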
miR-21 FLuc = raises the signal of a miR-21 reporter; HeLa miR-21 FLuc reporter, luciferase, 48 h; Potency, µM (highest dose often 38.3 µM), for inactives: at the highest dose reporter change, positive = more light; 340,000 tested, under 10 active; AID 2288; active = well fitted rising curve with a large enough effect; inconclusive = small, poorly fitted or top-dose-only effect; inactive = no such curve, though single readings can be large or run the other way;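 note: % of control where 0% means no effect; miR-21 action dims this reporter so a rising signal means less miR-21 action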
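Luminescence from a firefly luciferase reporter carrying a miR-21 binding site downstream, stably expressed under a CMV promoter in HeLa cells that make miR-21 endogenously, reports miRNA modulation after 48 h compound exposure up to approximately 40uM final.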
Rango release inh = inhibition of RanGTP-driven Rango-importin beta dissociation. O95149+P62826. Biochemical FRET Rango-importin beta, RanGTP-induced dissociation. Potency, µM (doses to about 46.1 µM), for the others: at the highest dose activity change, negative = inhibition. 340,000 tested, 0.071% active. AID 540253; active means falling FRET ratio curve, often poorly fitted, with flat reads before Ran was added; inconclusive means other falling curves, or compound fluorescence or quenching; inactive means flat or rising ratio curve;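 note: potency is the fitted concentration of half-maximal effect; % of control where 0% means no effect; nearly all actives have a fitted effect of over 45% in size; -100% = wells without RanGTP and RCC1; the record marks most hits as doubtful in a second field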
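Rango FRET biosensor (snurportin-1 IBB flanked by N-terminal EYFP and C-terminal CFP10) at 0.1 uM, with 0.25 uM importin beta in PBS, 1mM DTT, 0.02% Tween-20, 0.1% BSA. 0.6 uM Ran, 2mM GTP and 0.2 uM RCC1 were then added for 45 min at room temperature. Inhibition read as loss of FRET rise.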
Rango complex inh = inhibitors of Rango-importin beta complex formation; Q14974; Rango CFP/YFP FRET sensor + importin beta, 45 min; Potency, µM (top dose mostly 92.2 µM), without a hit: at the highest dose inhibition of complex formation; 340,000 tested, 0.031% active; AID 540263; active = rising FRET ratio curve, often small or poorly fitted; inconclusive = mostly compound fluorescence or quenching in the first reads; inactive = flat curves in all reads;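 note: potency is the fitted concentration of half-maximal effect; 0% = DMSO wells and 100% = buffer wells lacking importin beta; nearly all actives have a fitted effect of over 15% in size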
Target sequence (Q14974 whole entry, looked up): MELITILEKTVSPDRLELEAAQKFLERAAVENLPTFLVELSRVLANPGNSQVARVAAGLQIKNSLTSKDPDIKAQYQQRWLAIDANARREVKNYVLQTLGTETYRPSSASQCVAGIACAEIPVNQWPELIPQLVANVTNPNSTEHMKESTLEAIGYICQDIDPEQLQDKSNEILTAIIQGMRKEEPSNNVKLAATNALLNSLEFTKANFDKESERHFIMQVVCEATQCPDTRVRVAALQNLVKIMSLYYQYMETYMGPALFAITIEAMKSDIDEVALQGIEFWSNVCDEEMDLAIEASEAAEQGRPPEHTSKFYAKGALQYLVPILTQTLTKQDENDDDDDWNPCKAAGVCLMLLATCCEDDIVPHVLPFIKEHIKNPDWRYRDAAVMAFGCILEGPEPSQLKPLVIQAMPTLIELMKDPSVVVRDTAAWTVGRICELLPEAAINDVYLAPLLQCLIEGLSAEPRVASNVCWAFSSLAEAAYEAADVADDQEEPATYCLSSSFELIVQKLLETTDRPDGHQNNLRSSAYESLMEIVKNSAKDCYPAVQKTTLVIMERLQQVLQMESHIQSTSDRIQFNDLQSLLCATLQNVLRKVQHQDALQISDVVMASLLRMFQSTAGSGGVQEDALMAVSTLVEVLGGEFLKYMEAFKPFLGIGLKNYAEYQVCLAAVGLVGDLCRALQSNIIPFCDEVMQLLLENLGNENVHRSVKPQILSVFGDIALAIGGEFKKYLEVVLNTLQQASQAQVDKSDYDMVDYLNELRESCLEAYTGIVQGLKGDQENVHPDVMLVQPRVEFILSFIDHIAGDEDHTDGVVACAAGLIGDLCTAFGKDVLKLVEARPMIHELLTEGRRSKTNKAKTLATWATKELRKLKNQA
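Inhibition scored from the CFP 486 nm/YFP 530 nm FRET ratio 45 min after adding 0.125 microM importin beta to 50 nM Rango biosensor preincubated 5 min with compound (room temperature, PBS with DTT, Tween-20, BSA). No-importin wells as positive control.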
* = called active by the depositor; u = inconclusive; x = no result given.

entry	Molecule	GLA inh pH 4.5	miR-21 FLuc	Rango release inh	Rango complex inh
1	NC(=O)COc1ccc(C2c3c(oc4ccccc4c3=O)C(=O)N2CC2CCCO2)cc1 (centres undefined)	3.1	-9.1%	u	u
2	Cc1ccc(O)c(-c2cc(-c3cccc(F)c3)n[nH]2)c1	1.5	-20.4%	0.6%	1.2%
3	NC(=O)CC[C@@H]1NC(=O)[C@@H]2CCCN2C(=O)c2cc([N+](=O)[O-])cc(I)c2NCCC[C@@H](C(=O)NC(CC(=O)O)C(N)=O)NC1=O (some centres undefined)	-2.1	-5.5%	0.9%	0.2%
4	C/C(=N\OC(=O)c1ccc(Cl)cc1)c1nccs1	-15.8	0.2%	-3.1%	-0.7%
5	COCCNC(=O)c1onc(CSc2ccccc2)c1C(=O)NCCOC	x	x	1.7%	-0.6%
6	O=C1CCCCC1Sc1nnc(-c2ccc3c(c2)OCO3)o1 (centres undefined)	-0.1	21.2%	-10.7%	-2.5%
7	Cc1ccc2c(c1)N(S(=O)(=O)c1cc(-c3cc(C)no3)ccc1C)CCO2	x	19.5%	0.5%	0.4%
8	Cc1ccc(CNC(=O)c2ccc(N3CCC4(CC3)CC(c3ccccc3)=NO4)c(NC(=O)c3ccccc3)c2)cc1	x	x	1.0%	-0.7%

Further structures follow:
entry	Molecule	GLA inh pH 4.5	miR-21 FLuc	Rango release inh	Rango complex inh
9	CC(C)Oc1ccc(Br)cc1/C=N\NC(N)=S	-10.3	18.4%	-0.4%	u
10	Cc1cccc(NC(=O)Cn2c(O)c(N=NC(=O)c3ccncc3)c3ccccc32)c1	-16.2	-2.8%	12.8%	-2.7%
11	CCOC(=O)C1(Cc2cccc(Cl)c2)CCCN(C(=O)c2occc2C)C1 (centres undefined)	x	4.1%	1.7%	-0.1%
12	COc1ccc(-c2cc(=O)c3cc(OC)c(OC)cc3[nH]2)cc1	-2.2	-28.8%	-4.3%	0.5%
13	CCc1cccc(CC)c1NC(=O)CSc1nnc(CCC(=O)O)c(=O)[nH]1	-8.7	-1.4%	3.0%	3.0%
14	CCNC(=S)N(CCO)Cc1cc2cc3c(cc2[nH]c1=O)OCO3	x	-14.9%	-2.5%	-1.0%
15	CC(C)c1cc(=O)n2[nH]c(SCc3ccccc3Cl)nc2n1	x	1.7%	14.9%	0.0%
16	Nc1nnc(-c2ccc([N+](=O)[O-])o2)s1	x	x	7.3%	-1.3%

Other compounds follow.
entry	Molecule	GLA inh pH 4.5	miR-21 FLuc	Rango release inh	Rango complex inh
17	Cc1ccc(S(=O)OCC(=O)Nc2cc(Cl)ccc2N2CCOCC2)cc1 (centres undefined)	-0.6	5.1%	-1.9%	0.5%
18	CCOC(=O)N1CCN(c2nc(=S)n(-c3ccccc3)c(C)c2C(C)=O)CC1	4.2	-8.2%	0.8%	-0.5%
19	COc1ccc(N(CC(=O)NCc2cccs2)S(=O)(=O)c2cccc(C)c2)cc1	x	x	-0.3%	6.5%
20	Fc1ccc(-c2ccnc(=S)[nH]2)cc1	3.4	-6.2%	1.3%	0.7%
21	Cc1c(Cl)cccc1NC(=S)N(Cc1ccccc1)Cc1cccnc1	-7.3	4.5%	26.9%	-2.6%
22	COc1ccc(S(=O)(=O)NCC(=O)Nc2ccc(F)cc2)cc1	x	x	1.4%	-1.6%
23	O=C(NC1CCOC1)c1cc(COc2cccc(C(F)(F)F)c2)on1 (centres undefined)	x	-45.9%	29.2%	-3.8%
24	COc1ccc([N+](=O)[O-])cc1NC(=O)C1CCCN1S(=O)(=O)c1cccs1 (centres undefined)	x	x	6.0%	1.5%

A draw from above in order of number of heavy atoms, smallest number first:
entry	Molecule	GLA inh pH 4.5	miR-21 FLuc	Rango release inh	Rango complex inh
16	Nc1nnc(-c2ccc([N+](=O)[O-])o2)s1	x	x	7.3%	-1.3%
9	CC(C)Oc1ccc(Br)cc1/C=N\NC(N)=S	-10.3	18.4%	-0.4%	u
15	CC(C)c1cc(=O)n2[nH]c(SCc3ccccc3Cl)nc2n1	x	1.7%	14.9%	0.0%
22	COc1ccc(S(=O)(=O)NCC(=O)Nc2ccc(F)cc2)cc1	x	x	1.4%	-1.6%
14	CCNC(=S)N(CCO)Cc1cc2cc3c(cc2[nH]c1=O)OCO3	x	-14.9%	-2.5%	-1.0%
23	O=C(NC1CCOC1)c1cc(COc2cccc(C(F)(F)F)c2)on1 (centres undefined)	x	-45.9%	29.2%	-3.8%
21	Cc1c(Cl)cccc1NC(=S)N(Cc1ccccc1)Cc1cccnc1	-7.3	4.5%	26.9%	-2.6%
17	Cc1ccc(S(=O)OCC(=O)Nc2cc(Cl)ccc2N2CCOCC2)cc1 (centres undefined)	-0.6	5.1%	-1.9%	0.5%
18	CCOC(=O)N1CCN(c2nc(=S)n(-c3ccccc3)c(C)c2C(C)=O)CC1	4.2	-8.2%	0.8%	-0.5%
19	COc1ccc(N(CC(=O)NCc2cccs2)S(=O)(=O)c2cccc(C)c2)cc1	x	x	-0.3%	6.5%
10	Cc1cccc(NC(=O)Cn2c(O)c(N=NC(=O)c3ccncc3)c3ccccc32)c1	-16.2	-2.8%	12.8%	-2.7%
8	Cc1ccc(CNC(=O)c2ccc(N3CCC4(CC3)CC(c3ccccc3)=NO4)c(NC(=O)c3ccccc3)c2)cc1	x	x	1.0%	-0.7%

Additional results follow:
entry	Molecule	GLA inh pH 4.5	miR-21 FLuc	Rango release inh	Rango complex inh
25	COc1ccc(Cl)cc1C(=O)NNC(=O)CCNC(C)=O	4.7	-1.0%	-2.9%	1.4%
26	COC(=O)NCC(c1ccc2c(c1)OCO2)N1CCN(c2ccccc2)CC1 (centres undefined)	x	-1.2%	20.0%	0.2%
27	CCCCC#Cc1cncc(C(=O)N/N=C/c2ccccc2)c1	3.7	-5.4%	-2.1%	0.3%
28	COc1ccccc1CN1CC(C(=O)NCCN2CCOC2=O)CCC1=O (centres undefined)	x	-5.2%	6.7%	6.2%
29	N#CCC(=O)N/N=C/c1cn(Cc2ccc3ccccc3c2)c2ccccc12	-9.3	7.8%	-1.4%	-0.7%
30	N#Cc1cccc(NC(=O)Cc2ccccc2)c1	12.4	-10.6%	-14.9%	1.0%
31	Cc1c(-n2c(O)c(C3=c4ccccc4=NC3=O)sc2=O)c(=O)n(-c2ccccc2)n1C	-10.1	-0.3%	-12.1%	3.7%
32	COc1ccccc1C(=O)Nc1ccc(OCC(=O)N2CC(C)OC(C)C2)cc1 (centres undefined)	x	x	7.2%	-2.4%

Later entries:
entry	Molecule	GLA inh pH 4.5	miR-21 FLuc	Rango release inh	Rango complex inh
33	CN(C)S(=O)(=O)c1ccc(-c2ccccc2)cc1	1.9	-20.8%	25.2%	-0.5%
34	O=c1[nH]ncc(N/N=C\c2cccs2)c1Cl	-11.0	-24.7%	10.0%	-0.2%
35	Cc1c(NS(=O)(=O)c2ccc3c(c2)n(C)c(=O)n3C)c(=O)n(-c2ccccc2)n1C	6.5	-8.8%	7.3%	-1.6%
36	CCCC(NC(=O)C(C)Sc1nnnn1C1CC1)c1ccccc1 (centres undefined)	x	x	6.2%	-1.5%
37	CCOC(=O)c1cc2c(nc1N)CCCC2	-0.3	-12.2%	13.6%	2.5%
38	CCOC(=O)NC(NC(=O)OCC)C(=O)c1ccccc1	-3.3	-0.2%	-9.1%	10.9%
39	CCOc1ccc2nc(SCC(=O)c3ccccc3)sc2c1	-6.6	-56.2%	-4.8%	-3.7%
40	O=C(Nc1nnc(S(=O)(=O)Cc2ccc(F)cc2)s1)c1ccccc1F	x	-0.9%	39.8%	-2.8%

Remaining list, next part
entry	Molecule	GLA inh pH 4.5	miR-21 FLuc	Rango release inh	Rango complex inh
41	O=C(Nc1ccc(F)cc1)Nc1ccc(N2CCCC2)c(S(=O)(=O)Nc2ccccc2Cl)c1	-7.8	u	2.4%	1.1%
42	O=C(CCCCC(=O)OCC1CCCO1)OCC1CCCO1 (centres undefined)	x	x	16.8%	7.1%
43	COc1ccccc1N1CCN(C(=O)Cn2nnc(-c3ccncc3)n2)CC1	3.5	-4.6%	1.0%	-3.1%
44	CCN(C[C@H]1N[C@@](Cc2ccccc2)(C(=O)OC)[C@H]2C(=O)N(C)C(=O)[C@@H]12)C(=O)c1ccc(C(C)(C)C)cc1	x	x	4.3%	-0.8%
45	CCN(CC)C(=O)/C=C/c1ccccc1	x	x	-0.8%	-2.0%
46	CCCCc1nnc(SCC(=O)Nc2nccs2)n1C	x	2.4%	17.0%	2.0%
47	O=C(NCc1ccncc1)C1CCN(S(=O)(=O)c2cc(Cl)ccc2Cl)CC1	x	1.6%	0.2%	-0.8%
48	Cc1cc(C)n(CC(C)NC(=O)c2cc(COc3c(F)cccc3F)on2)n1 (centres undefined)	-3.2	1.2%	0.2%	0.0%

Brought forward from above: 3 compounds, then new ones.
entry	Molecule	GLA inh pH 4.5	miR-21 FLuc	Rango release inh	Rango complex inh
46	CCCCc1nnc(SCC(=O)Nc2nccs2)n1C	x	2.4%	17.0%	2.0%
47	O=C(NCc1ccncc1)C1CCN(S(=O)(=O)c2cc(Cl)ccc2Cl)CC1	x	1.6%	0.2%	-0.8%
48	Cc1cc(C)n(CC(C)NC(=O)c2cc(COc3c(F)cccc3F)on2)n1 (centres undefined)	-3.2	1.2%	0.2%	0.0%
49	COc1ccccc1N1CCN(c2nc(C)nc3c2oc2ccccc23)CC1	-2.9	21.8%	1.0%	-2.1%
50	COc1c(C=NNC(N)=O)c(OC)c(OC)c2c1CCO2	x	x	6.9%	0.1%
51	C=CCOc1ccc(/C=C2\SC(=S)N(N3CCOCC3)C2=O)cc1	-5.2	-3.1%	4.1%	2.0%
52	Cc1cccc(C)c1NC(=O)CN(C)CC(=O)c1c(N)n(Cc2ccccc2)c(=O)n(C)c1=O	x	x	-7.0%	-0.5%
53	CCS(=O)(=O)N1CCCC(C(=O)NCc2ccccc2Cl)C1 (centres undefined)	-0.3	-13.5%	6.6%	1.0%
54	COc1ccc(OC)c2[nH]c(=O)c(CCNC(=O)COc3ccccc3)cc12	-17.7	-11.5%	-13.8%	2.2%
55	COc1ccccc1NC(=O)C/C(C)=N/NC(=O)COc1c(Br)cc(Br)cc1OC	-10.7	0.9%	-5.0%	3.8%
56	COc1ccc(-c2nc(-c3ccccc3)no2)c(OC)c1	-8.3	26.6%	-14.6%	1.1%

(more compounds)
entry	Molecule	GLA inh pH 4.5	miR-21 FLuc	Rango release inh	Rango complex inh
57	Cc1nc(/C(N)=N/OC(=O)c2c(-c3ccccc3Cl)noc2C)cs1	1.3	9.2%	-11.0%	0.6%
58	COc1ccc(-c2cc(C(F)(F)F)nc(SCCC(=O)NCc3ccco3)n2)cc1	0.2	-0.9%	8.6%	0.3%
59	CCN(CC(=O)Nc1ccc(OC)cc1)C(=O)c1oc2c(Cl)cccc2c1C	x	x	5.4%	-3.0%
60	Cc1onc(-c2c(F)cccc2Cl)c1C(=O)ONC(=O)c1ccccc1	-2.0	-1.0%	1.1%	0.3%
61	CCCCn1c(SCC(=O)N2CCC(C)CC2)nc2ccsc2c1=O	0.9	17.6%	3.6%	1.8%
62	CS(=O)(=O)N1N=C(c2ccco2)CC1c1ccccc1 (centres undefined)	4.9	-20.4%	12.7%	2.4%
63	O=C(O)C1C2C=CC3(CN(Cc4ccncc4)C(=O)C13)O2 (centres undefined)	-2.3	-10.4%	-0.9%	1.4%
64	COc1cccc(OCCNc2cc(N3CCCCC3)ccc2[N+](=O)[O-])c1	-12.0	-8.5%	6.6%	1.2%

Later entries.
entry	Molecule	GLA inh pH 4.5	miR-21 FLuc	Rango release inh	Rango complex inh
65	COCCn1c(SCC(=O)Nc2ccccc2)nnc1-c1ccoc1C	x	-3.7%	-2.5%	2.8%
66	CC(=O)Nc1ccc(S(=O)(=O)N2CCN(c3ncccn3)CC2)cc1	x	0.9%	7.0%	-0.8%
67	O=C(O)c1ccc(Cl)cc1NC(=O)C1CCCO1 (centres undefined)	5.6	0.4%	-10.9%	-0.4%
68	C/C(=N/NC(=O)CNC(=O)c1cccnc1)c1ccccc1	x	2.3%	10.8%	-0.7%
69	Cc1nn(C)c(Oc2cccc(Cl)c2)c1C(=O)O	5.5	-4.3%	-7.1%	3.4%
70	CCCCN1CC(C(=O)NC2CCCCC2)CC1=O (centres undefined)	-18.6	0.8%	13.6%	0.5%
71	COc1ccc(/C=C(\C#N)C(=O)N=CN(C)C)cc1	-2.9	1.2%	-4.4%	0.2%

Not all compounds are listed. The share of hits here may be higher or lower than overall.
